NPYLR7 ag = mosquito NPYLR7 agonism; HEK293T NPYLR7/Galpha15, GCaMP6s calcium fluorescence; activation, % at 10 µM; actives 0.15% (n = 270,000); AID 1259423; in the data active = activation above about 40%;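 also: 0% = vehicle and 100% = reference agonist at the receptor; some compounds past the cut are filed as inactive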
NPYLR7 ag max-min = also measured in NPYLR7 ag; calls as there; activation, %; measured here: Max-Min RFU normalised activation; some inactives read as strong as hits;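 span of the calcium signal over five minutes; 0% = vehicle and 100% = native peptide agonist; compound fluorescence can raise it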
The depositor's hits bear a star; & = joins results of further samples. These rows are one share of the data (hit frequency here may not be typical).

Second line of a record: NPYLR7 ag	NPYLR7 ag max-min
1) CC1(C)C(=O)NC(=O)N1CC(=O)N1CCn2cncc2C1
 : 21	11
2) Cc1ncsc1CCN(C)C1CCN(S(C)(=O)=O)CC1
 : 10	9
3) CC(NC(=O)CN1CCN(CC(=O)N2CCCCC2)CC1)c1ccccc1Cl (stereo not given)
 : -4	-4
4) CC1(C)CC(N2CCN(c3ccccc3)CC2)=CC(=[N+]2CCCC2)C1
 : 7	8
5) Cc1cc(C)n(-c2ccc(NC(=O)C3CCCCN3C(=O)CCc3cccs3)cc2)n1 (stereo not given)
 : 11	8
6) COC(=O)c1cc(S(=O)(=O)N(C)C)ccc1N1CCc2sccc2C1
 : 9	6
7) Cc1cc(C(=O)N2CC[C@H](NC(=O)c3snnc3C)C[C@H]2C(=O)N[C@H](Cc2ccccc2)C(N)=O)n(C)n1
 : -10	-16
8) CN(C)CCNS(=O)(=O)c1ccc(Cl)c([N+](=O)[O-])c1
 : 1	4
9) Cc1cc(NC(=O)C(C)N2CCC(N(C)Cc3ncc(C)o3)C2)on1 (stereo not given)
 : 4	1
10) CCC(CO)N(Cc1ccsc1)C(=O)c1cccc(C(C)=O)c1 (stereo not given)
 : -5	-5
11) O=C(CCC1CCN(C(=O)c2cc(C(F)(F)F)ccc2Cl)CC1)NC1CC1
 : 3	-2
12) CCOC(=O)C(C#N)C(c1ccccc1F)C(C(=O)Nc1ccccc1)[n+]1ccccc1 (stereo not given)
 : 0	-2
13) Fc1ccc(Br)cc1C1CC(c2cccnc2)=Nc2nnnn21 (stereo not given)
 : 7	5
14) Cc1ccccc1C1CCCN1C(=O)c1cc(COc2ccccc2F)[nH]n1 (stereo not given)
 : -4	-8
15) Cc1nc(C(=O)N(c2ccccc2S(C)(=O)=O)C(C)C)ccc1C#N
 : 0	-1
16) CCCCOC(=O)c1ccc(NC(=O)c2cc(=O)c(OC)co2)cc1
 : 7	0
17) COc1ccc(-c2csc(=NCCO)n2-c2ccccc2)cc1
 : -3	-5
18) COCC(=O)N1CC(C(=O)NCCc2ccccc2)CC(c2ccc(F)c(C)c2)C1 (stereo not given)
 : 3	1
19) Cc1cc(C)n2nc(SCCOc3cc(Cl)ccc3Cl)nc2n1
 : 16	14
20) Cc1ccc(N=c2scc(-c3ccccc3)n2N2CCOCC2)c(C)c1
 : -5	-9
21) O=C1CC(=O)Nc2cc(S(=O)(=O)Nc3ccccc3C(=O)NC3CC3)ccc2N1
 : 8	9
22) CC1(C(=O)Nc2ccc3c(c2)OCO3)CCN1C(=O)Cc1cc(F)ccc1F (stereo not given)
 : 11	8
23) CC(C)(C)C(=O)NCCc1nc2ccccc2n1Cc1ccccc1F
 : -11	-14
24) FC(F)(F)c1nnc2ccc(NCCC3CCCC3)nn12
 : -3	-2
25) CN(C(=O)c1ccccn1)C(Cc1ccccc1)C1CCN(C(=O)[C@H]2C[C@@H]3C=C[C@H]2C3)CC1 (stereo not given in full)
 : 17	-2
26) Cc1cc(NS(=O)(=O)c2ccc(N=CC(C#N)c3nc(-c4ccc(C)c(C)c4)cs3)cc2)no1 (stereo not given)
 : 24	19
27) CN1C(=O)CC(C(=O)N(CCO)Cc2cccs2)c2ccccc21 (stereo not given)
 : 4	3
28) Cc1ccc(-n2nc(C(C)(C)C)cc2NC(=O)CN(Cc2ccccc2)C(=O)C2CC2)c(C)c1
 : 7	12
29) Cc1ccc(Nc2nc(N(CCO)Cc3ccccc3)nc3c2cnn3-c2ccccc2)cc1
 : 1	-1
30) COCc1cc(N2CCN(C/C=C/c3ccccc3)CC2)nc(SCc2ccc(C(=O)O)o2)n1
 : 13	26
31) CCc1nccc(-c2c(-c3ccccc3)ncn2CCCN2CCCC2)n1
 : 5	2
32) O=C(O)c1cccc(N2C(=O)CC(Nc3ccc4c(c3)CCC4)C2=O)c1 (stereo not given)
 : 11	4
33) CCCCc1c(O)c2c(n(-c3ccccc3)c1=O)CC(C)(C)CC2
 : 4	7
34) C=CCn1c(SCC(=O)Nc2ccccc2)nc2sc(C)c(C)c2c1=O
 : -5	-11
35) O=C(CN1CCN(C(=O)CCl)CC1)Nc1ccc(F)cc1
 : -8	-4
36) Cc1csc2c3ncnc-3ncn12
 : 2	10
37) Cc1cccc(-c2nnc(NC(=O)C3CCCN3C(=O)c3ccc(Br)cc3)s2)c1 (stereo not given)
 : 2	10
38) CCCc1nc2c(o1)N=C(N)C(C#N)C2Cc1ccccc1 (stereo not given)
 : -1	-3
39) Cc1nccn1-c1ccccc1CNC(=O)C1CC(=O)N(CC(C)C)C1 (stereo not given)
 : 25	16
40) CCOC(=O)CN(C(=O)CC1CCCC1)[C@H]1C[C@H]2CCOC[C@H]2C1
 : -1	8
41) COc1ccc(S(=O)(=O)Nc2cc(-c3cn4nc(OC)ccc4n3)ccc2C)cc1
 : -8	-13
42) N#Cc1cc(F)c(N2CCCC2c2ccc3c(c2)OCO3)c(F)c1 (stereo not given)
 : -10	-9
43) CCCCN(C1=NC2CS(=O)(=O)CC2S1)c1ccccc1 (stereo not given)
 : -3	-2
44) C[C@@H]1[C@H]2C[C@@H](C[C@H]1NC(=O)CCC(=O)N1CCc3c([nH]c4ccccc34)C1)C2(C)C
 : -7	-17
45) CNS(=O)(=O)c1ccc(/C=C/C(=O)Nc2cccc(C)n2)cc1
 : 10	6
46) CCN1CC(CN(C)C(=O)CCc2nnc(C3(c4ccc(Cl)cc4)CCC3)o2)CC1=O (stereo not given)
 : 2	-2
47) COc1ccc(C)cc1-n1cnnc1C(O)c1ccccc1 (stereo not given)
 : 7	2
48) Cc1nnc(NC(=O)CCc2csc(NC(=O)c3ccc[nH]c3=O)n2)s1
 : -11	-17
49) O=C(COc1ccccc1O)N1CC[C@@H](c2ccc3c(c2)OCO3)[C@H](O)C1
 : 10	4
50) CCCCN(CC(=O)N1c2ccccc2-n2cccc2C1c1cccc(C)c1)C(=O)Nc1ccccc1OCC (stereo not given)
 : 17	27
51) Cc1cccc(-c2nn3c(NC4CCCC4)cc(C)nc3c2C)c1
 : 1	2
52) CC1Cc2c(NC(=O)c3c[nH]c4ccccc34)nn(C)c2NC1=O (stereo not given)
 : -17	-23
53) CCOC(=O)C1(Cc2ccccc2F)CCCN(C(=O)CCc2c[nH]c3ccccc23)C1 (stereo not given)
 : 11	-2
54) COc1ccc(Cl)c2sc(N(Cc3cccnc3)C(=O)c3ccccc3S(C)(=O)=O)nc12
 : 8	7
55) Cc1cnc(C)c(-c2cc(O)c3c(c2)CN(Cc2nccs2)CCO3)n1
 : 7	-1
56) CCOc1cccc(CN2CCCC(C(=O)Nc3ccc(-c4ccn[nH]4)cc3)C2)c1O (stereo not given)
 : 2	-1
57) CC(C)c1c(C(=O)N2CCCCC2)cnn1C
 : 29	25
58) O=C(NCCc1csc(-c2cccnc2)n1)C1CC2(CCNCC2)CN1 (stereo not given)
 : 2	-1
59) Cc1nc(-c2ccccc2)sc1C(=O)NCCCn1nc(-c2ccncc2)ccc1=O
 : 8	3
60) CC(C)C(=O)N(CC(=O)N(CCc1c[nH]c2ccccc12)Cc1ccc(C(C)(C)C)cc1)C(C)C
 : 1	8

New compounds follow:
Second line of a record: NPYLR7 ag	NPYLR7 ag max-min
61) O=C(c1nnc2n1CCN(Cc1ccccc1)C2)N1CCOCC1
 : 12	6
62) Cc1cc(C(=O)N(Cc2ccccn2)c2nc3ccccc3s2)nn1C
 : 5	-1
63) CCOC(=O)c1sc(=S)n(CC)c1N
 : -9&0	-11&6
64) N#Cc1cccc(OC2CC3CCC(C2)N3C(=O)c2ccc(CSCc3cccs3)cc2)c1 (stereo not given)
 : -1	-1
65) Cc1nc2c(c(N3CCCC3)n1)CN(C(=O)Nc1ccc(Cl)c(Cl)c1)CC2
 : 16	22
66) Cc1cccc(CSc2nc3c(c(=O)n2C)SCC3)c1
 : -1	-2
67) CCCCCCC(=O)NC1CC2CCC(C1)N2Cc1ccc2c(c1)OCO2 (stereo not given)
 : 17	2
68) O=C(N1CCCC1C1CCCCC1)n1ccnc1 (stereo not given)
 : -8	-8
69) CC(C)C(Nc1nc(N)nc2ccc(C(=O)O)cc12)c1cccnc1 (stereo not given)
 : 2	0
70) COc1cc(C(=O)NCCc2csc3nc(-c4cccc(F)c4)nn23)c([N+](=O)[O-])cc1OC
 : 15	6
71) CCOC(=O)c1cc(-c2ccccc2)sc1NC(=O)CC1CCCC1
 : 5	0
72) CC(C)(Oc1ccc(Cl)cc1)C(=O)OCC(=O)N1CCCC1
 : 4	1
73) CCOc1ncccc1CN1CCC(C(=O)NCCc2ccc(S(N)(=O)=O)cc2)CC1
 : -3	-10
74) Nc1ccc(N2CCCC2)c(C(=O)NCCN2CCOCC2)c1
 : 7	6
75) CC(C)(C)N1CCCN(C(=O)c2ccc3nc[nH]c3c2)CC1
 : 9	9
76) CO[C@H]1C(=O)N(C)C2(CCN(C(=O)Nc3ccccc3)CC2)[C@@H]1C(=O)N(C)c1ccccc1
 : 23	31
77) O=C(c1ccco1)N1CCN(C(c2cccs2)C2Sc3ncnn3C2=O)CC1 (stereo not given)
 : 2	1
78) O=S(=O)(c1cc(F)c(F)cc1F)N1CCN(c2nccc(-c3cccc(C(F)(F)F)c3)n2)CC1
 : 14	4
79) CCOC(=O)c1[nH]c2ccc(Cl)cc2c1CCN1C(=O)c2ccccc2C1=O
 : 13	11
80) CC1CCN(Cn2nc(-c3cccnc3)n(Cc3ccco3)c2=S)CC1
 : 3	3
81) Cn1ccnc1SCC(=O)Nc1ccccc1SC(F)F
 : -7	-8
82) CCOC(=O)C1=C(C)N=c2s/c(=C/c3cc(Br)ccc3OC(C)=O)c(=O)n2C1c1ccccc1 (stereo not given)
 : -5	-11
83) CCc1cccc(NC(=O)C(NS(=O)(=O)c2cccs2)C(C)C)c1 (stereo not given)
 : 3	2
84) COc1ccc2c(c1)CCN(S(=O)(=O)CCNC(=O)c1ccc3nsnc3c1)C2
 : 8	2
85) COc1ccc(C)cc1NC(=O)COC(=O)C1(c2ccccc2F)CCCC1
 : 3	2
86) CCOC(=O)C1CCCN(S(=O)(=O)C2CON(C)C2c2ccc(Cl)cc2Cl)C1 (stereo not given)
 : 4	1
87) O=C(CCn1cnnn1)N1CCC2(CCCN(CCc3ccccc3)C2=O)C1 (stereo not given)
 : 4	3

Screens (PubChem)
